Compound activity (PubChem BioAssay)
TRPML1 agonist: human mucolipin-1 channel agonism; Q9GZU1; TRPML1-expressing cells, Ca2+ dye fluorescence, FDSS; host cell line not named in the record; reference of the full effect not given here; activation, % (test concentration not listed); 410,000 tested, 0.12% active; in the data active = activation above about 50%; inconclusive = about 30% to 50%; inactive = below about 30%; also: 0% is about no effect; the text of the record puts the active cut at 80%
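In this qHTS format, compounds were pin-transferred onto Ca8-dye-loaded TRPML1-DL cells induced with Tet overnight, and intracellular Ca2+ fluorescence was recorded kinetically for 110 s after a 10 s baseline. A subsequent 4uM final 54-4 (EC80) addition followed by a second 110 s read served as the antagonist phase.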
TRPML1 inh: blocks the human TRPML1 channel; 390,000 tested, 0.02% active; AID 624415; activity change, negative = inhibition, % (no concentration beside the values); Q9GZU1; TRPML1-inducible cells, Ca2+ dye fluorescence, FDSS; hits give low values; inhibition of EC80 agonist-evoked calcium signal; in the data active means activity change below about -50%; inconclusive means about -30% to -50%; inactive means above about -30%;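 also: stimulus is agonist 54-4 at its EC80 concentration; % is scaled to controls: 0 for no effect and ±100 for the full control effect; compound concentration not given in the record; the text of the record puts the active cut at -80%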
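TRPML1-DL cells, Tet-induced overnight (~16 h, 37 °C) at 1,500 cells/well, were loaded with Ca8 no-wash dye plus quencher for 45-90 min at room temperature. Compounds were pinned during FDSS kinetic reading; agonist 54-4 at EC80 (4 uM final) then added.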
Six1-Eya2 inh: blocks human Six1 binding to Eya2; Q15475+O00167; AlphaScreen GST-Six1/His-Eya2 binding, biochemical; hits give low values; control for the full effect not named in the record; activity change, % (concentration not given with the values); 360,000 tested, 0.56% active; AID 651725; in the data active = activity change below about -65%; inconclusive = about -30% to -65%; inactive = above about -30%; also: % is scaled to controls: 0 for no effect and ±100 for the full control effect
Target sequence (O00167 whole entry, looked up): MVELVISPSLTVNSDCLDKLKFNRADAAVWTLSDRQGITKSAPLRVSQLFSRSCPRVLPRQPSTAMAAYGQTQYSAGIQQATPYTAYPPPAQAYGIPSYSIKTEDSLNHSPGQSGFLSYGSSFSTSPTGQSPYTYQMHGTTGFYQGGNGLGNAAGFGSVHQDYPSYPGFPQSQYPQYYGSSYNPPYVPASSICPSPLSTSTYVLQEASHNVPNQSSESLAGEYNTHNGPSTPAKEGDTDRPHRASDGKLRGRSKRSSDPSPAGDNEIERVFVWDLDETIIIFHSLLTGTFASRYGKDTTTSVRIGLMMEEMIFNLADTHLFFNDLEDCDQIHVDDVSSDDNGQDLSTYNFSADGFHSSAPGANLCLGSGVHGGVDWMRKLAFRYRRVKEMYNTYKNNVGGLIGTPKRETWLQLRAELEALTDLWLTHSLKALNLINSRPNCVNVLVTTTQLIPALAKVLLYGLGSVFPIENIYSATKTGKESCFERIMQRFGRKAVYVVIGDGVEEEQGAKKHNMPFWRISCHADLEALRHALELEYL
Target sequence (Q15475 whole entry, looked up): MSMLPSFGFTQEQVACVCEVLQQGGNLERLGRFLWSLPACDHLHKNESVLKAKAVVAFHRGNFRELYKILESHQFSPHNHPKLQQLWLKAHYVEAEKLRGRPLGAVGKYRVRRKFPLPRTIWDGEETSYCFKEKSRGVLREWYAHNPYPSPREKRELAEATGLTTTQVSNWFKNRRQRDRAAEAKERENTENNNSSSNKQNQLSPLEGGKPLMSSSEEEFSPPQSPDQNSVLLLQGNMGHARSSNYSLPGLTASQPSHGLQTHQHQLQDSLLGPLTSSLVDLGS
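Compounds are tested against tagged Six1 and Eya2 proteins bridged by glutathione donor and nickel acceptor beads; after a one-hour incubation at 37 °C without light, AlphaScreen emission is recorded.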
CtBP-E1A blk: CtBP/E1A binding inhibition; AID 651724; AlphaScreen GST-E1A/His-CtBP binding, 1536-well; hits give low values; control for the full effect not named in the record; activity change, % (test concentration not listed); 340,000 tested, 0.49% active; in the data active means activity change below about -65%; inconclusive means about -30% to -65%; inactive means above about -30%; also: % is scaled to controls: 0 for no effect and ±100 for the full control effect; compound concentration not given in the record
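Protein mix (5X: 125 nM each GST-E1A, His-CtBP) was incubated with pinned compound 2 h at 37 deg C in dark, in 50 mM Tris pH 8.0 buffer with 300 mM NaCl. Glutathione donor and nickel acceptor beads followed; AlphaScreen signal read after 1 h.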
TRPV1 PAM: enhances activation of the human vanilloid receptor TRPV1 | Q8NER1 | TRPV1-expressing cells, Fluo-8 calcium influx, capsaicin EC20 potentiation; host cell line not named in the record; control for the full effect not named in the record | potentiation, % at 8.33 µM | 320,000 tested, 0.02% active | AID 540277; active means potentiation above 80%; inconclusive means 30% to 80%; inactive means below 30%; also: 0% is about no effect
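TRPV1-expressing cells were cultured overnight at 35.5C and loaded with Fluo-8 calcium dye for 40 to 90 min at room temperature. After a 10 s baseline, compound was added and calcium influx was read kinetically for 3 min (ex 480/em 520 nm).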
D2 potentiator: positive allosteric modulators of human D2 dopamine receptor; P14416; DiscoveRx D2 beta-arrestin cells, luminescence, 90 min; 100% = 57 uM dopamine signal; potentiation, % (test concentration not listed); 360,000 tested, 0.23% active; active = potentiation of 50% or more; inconclusive = 30% to 50%; inactive = 30% or less;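 also: compound concentration not given in the record; tested on top of an EC20 dose of dopamine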
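PathHunter beta-arrestin assay in DiscoveRx D2 cells. Compounds were added with an EC20 of dopamine (50 nM final) for 90 min at 37 deg C. Luminescence was read 1 h after detection reagent, with 57 uM dopamine as the EC100 control.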
* = called active by the depositor; u = inconclusive; x = no result given.

Compound	TRPML1 agonist	TRPML1 inh	Six1-Eya2 inh	CtBP-E1A blk	TRPV1 PAM	D2 potentiator
COc1ccc(C[C@H]2CN3C(=NC[C@@H]3C)N2CCNC(=O)CCC2CCCCC2)cc1	-1.2	47.2	-2.2	0.7	16.2	-22.9
CC(C)(C)C(=O)CN1CCN(C2c3ccccc3-c3ccccc32)CC1	0.1	7.2	-1.2	-3.2	-21.9	-9.5
CCCCN1CC(=O)N2[C@H]3c4cc(Cl)ccc4OC[C@@H]3[C@H](c3ccccc3)[C@]2(C)C1=O	-0.1	1.0	-6.4	-3.9	-1.5	-9.9
CCN(CC)S(=O)(=O)c1cccc(C(=O)N2CCCc3ccccc32)c1	0.9	5.4	7.3	1.6	18.7	-8.1
Cc1cccc(N=Cc2cc(Br)cc(Cl)c2O)c1	-0.1	-1.5	-4.2	0.0	1.4	-19.8
Fc1ccc2nc(Nc3nc4cc5c(cc4s3)OCCO5)sc2c1	0.0	20.6	8.4	-8.0	0.6	-8.5
Cc1c(Cl)cccc1Nc1nc(N)nc(CN2CCc3ccccc3C2)n1	0.4	4.1	-6.2	-4.5	-1.0	-26.6
COc1ccc(S(=O)(=O)N2CCN(c3ccc4nnc(-c5ccc(F)cc5)n4n3)CC2)cc1	-0.8	-10.7	-9.6	-0.4	-4.4	-2.4
C=CCn1c(CCSCc2ccc(OC)c(C)c2)n[nH]c1=S	1.5	-11.2	11.0	-2.0	-12.2	-5.3
COc1cc2cc(CCOC(=O)CCCC(=O)O)oc(=O)c2cc1OC	0.1	0.5	-21.6	u	1.9	-9.5
CCCc1ncc(C(O)c2cccc(OC)c2OC)n1C (configuration not stated)	0.3	2.7	2.3	3.0	0.8	-1.1
O=C(Cc1ccccc1F)Nc1cccc2cccnc12	0.7	1.9	19.0	0.0	-10.0	-2.2
COc1cc2c(cc1OC)CN(C(=O)CC1CC3CCC1C3)CC2 (configuration not stated)	1.0	-1.0	-1.6	-18.7	19.7	4.7
COc1ccc(CNC(=O)CSc2nnc(-c3cccnc3)n2N)cc1	0.4	-6.5	0.8	-11.0	4.4	-4.0
COc1ccc(Cl)cc1C(=O)OCC(=O)N(C)CC(=O)Nc1ccc(F)cc1	-0.7	11.5	-1.6	1.3	0.2	-22.4
COc1cc(Cl)cc(/C=C/c2ccc3cccc(O)c3n2)c1OC	0.6	-2.8	-7.0	-1.9	8.0	-5.0
COC(=O)c1ccc(CSc2nnc(SCc3ccc(C(=O)OC)o3)s2)o1	1.8	-2.5	-3.7	-8.0	-2.5	-7.7
C[C@@H](NC(=O)[C@@H]1CCCN1C(=O)[C@@H]1CCCN1C(=O)c1ccc(Cl)cc1)c1ccccc1	-1.4	x	2.6	6.6	x	x
COc1ccc(S(=O)(=O)N2CCN=C2SCc2cccc(F)c2)cc1	2.6	35.5	7.0	17.1	1.1	5.6
COc1cc(C(=O)Nc2ccc3nc4n(c(=O)c3c2)CCCC4)ccc1Br	-0.6	12.8	-29.7	u	29.3	-2.7
O=C1Nc2ccc([N+](=O)[O-])cc2C1=Nc1cccc(CO)c1	0.3	-13.9	-5.6	-16.5	-1.2	7.7
Cn1c(SCC(=O)Nc2cccc(S(=O)(=O)N3CCOCC3)c2)nnc1-c1ccncc1	0.7	2.9	2.0	-8.9	1.3	6.7
CCOC(=O)CN(C(=O)CSc1nnc(CNc2ccc(C)cc2C)n1CC)c1ccccc1	0.5	5.4	-6.6	-7.0	28.3	-7.5
CCOC(=O)CCN(Cc1cccs1)S(=O)(=O)c1ccc(Cl)cc1	0.3	4.6	34.3	19.9	-14.9	-6.4
CCS(=O)(=O)CCSc1nc2ccccc2s1	-0.8	8.6	4.2	6.5	1.1	-3.9
CCOc1ccc(N2C(=O)CC(N(CCc3ccc(S(N)(=O)=O)cc3)C(C)=O)C2=O)cc1 (configuration not stated)	1.3	10.7	16.5	4.3	-6.1	-2.7
C=CCOC(=O)C1=C(C)Nc2ncnn2C1c1cccs1 (configuration not stated)	2.7	1.6	5.0	2.4	-5.2	-7.2
CNc1cncc(-c2cnn(CC(C)C)c2)n1	-0.3	-8.1	6.5	0.4	x	-14.6
Cc1nn(C(C)(C)C)c(OC(=O)CC(C)C)c1S(=O)(=O)c1ccccc1	5.1	0.6	4.6	1.9	-6.2	-3.7
CN(c1ccc(OCC(=O)NC2=NCCS2)cc1)S(=O)(=O)c1ccc(F)cc1	1.3	-2.3	-1.4	-2.0	-3.7	-5.9
CCOc1cc(OCC)cc(C(=O)O)c1	-0.8	7.4	4.8	5.0	4.8	-18.4
COc1cccc(/C=C(\C(=O)O)c2ccccc2)c1	-0.5	0.3	0.7	0.7	8.8	-3.4
CC(C)c1ccc(C2(C)NC(=O)N(CC(=O)NCC3COc4ccccc4O3)C2=O)cc1 (configuration not stated)	2.5	-12.6	0.7	1.6	-2.6	-9.9
Cc1ccc(S(=O)(=O)N2CCCCC2C(=O)Nc2nncs2)cc1 (configuration not stated)	-0.5	1.6	-4.7	x	-13.2	-12.5
COc1cccc(CNC(=O)COc2cccc(-n3cnnn3)c2)c1	-0.1	11.3	-5.2	1.6	18.2	-10.3
O=C(/C=C/Nc1ccccc1Br)c1ccccn1	0.9	15.7	-11.4	-5.7	-10.7	21.8
CCCCN1CCc2c(c3ccccc3n2Cc2ccccc2)C1	1.8	-14.7	u	x	3.1	-23.3
C=C1C2(C(=O)Nc3nccs3)CCC(C2)C1(C)C (configuration not stated)	0.0	9.7	5.9	-1.0	9.9	-11.6
CCN(C(=O)c1cn(CC)c(=O)c2cc(OC)c(OC)cc12)c1ccccc1C	1.6	-15.3	2.4	0.4	1.2	-0.4
O=C(Nc1ccccc1)N1N=CCC1c1ccccc1 (configuration not stated)	-0.3	-22.1	7.1	11.8	9.0	-5.2

Part of the list above, with two lines to a compound:
Below each compound – TRPML1 agonist | TRPML1 inh | Six1-Eya2 inh | CtBP-E1A blk | TRPV1 PAM | D2 potentiator
- O=C1Nc2ccc([N+](=O)[O-])cc2C1=Nc1cccc(CO)c1
  0.3 | -13.9 | -5.6 | -16.5 | -1.2 | 7.7
- Cn1c(SCC(=O)Nc2cccc(S(=O)(=O)N3CCOCC3)c2)nnc1-c1ccncc1
  0.7 | 2.9 | 2.0 | -8.9 | 1.3 | 6.7
- CCN(CC)S(=O)(=O)c1cccc(C(=O)N2CCCc3ccccc32)c1
  0.9 | 5.4 | 7.3 | 1.6 | 18.7 | -8.1
- C=C1C2(C(=O)Nc3nccs3)CCC(C2)C1(C)C (configuration not stated)
  0.0 | 9.7 | 5.9 | -1.0 | 9.9 | -11.6

Continuation.
Compound	TRPML1 agonist	TRPML1 inh	Six1-Eya2 inh	CtBP-E1A blk	TRPV1 PAM	D2 potentiator
O=C(Nc1ccc(-c2nc3ccccc3s2)cc1)C1=COCCO1	-0.2	49.7	-17.6	-6.6	-4.1	-5.9
N#Cc1ccc(NC(=O)COC(=O)CCc2nc3ccccc3c(=O)[nH]2)cc1	0.5	1.5	5.0	-4.2	-6.8	-9.4
CSc1ccc(S(=O)(=O)N2CCC(C(=O)Nc3ccc(C(N)=O)cc3)CC2)cc1	0.6	-15.4	0.5	-18.5	-3.6	-5.5
Cc1cccc2cc(CN(Cc3ccc(F)cc3)C(=O)N3CCOCC3)c3nnnn3c12	1.4	-2.4	-0.4	-0.7	9.8	-13.4
CC(=O)Nc1cccc(-c2csc(NCc3ccccc3)n2)c1	1.3	25.9	-4.6	-6.7	6.6	7.5
CSc1ccccc1OCc1cc(C(=O)NC2CCOC(C)(C)C2)no1 (configuration not stated)	0.5	14.2	-0.2	7.0	-7.0	6.0
CC(C)c1ccc(Nc2nc(Cl)nc(NCc3ccco3)n2)cc1	x	x	1.4	5.6	-14.4	-1.1
N#Cc1cc2c(nc1SCC(=O)Nc1sc3c(c1C#N)CCC3)CCCC2	-0.1	6.5	2.1	-1.2	-2.0	5.2
O=C1CN(C(=O)COc2ccc(F)cc2Br)c2ccccc2N1	-0.7	17.8	-1.3	5.3	-7.3	6.3
COc1ccc2cc(C(C)C(=O)OC(C)C)ccc2c1 (configuration not stated)	2.2	9.4	38.4	23.8	-3.9	-7.9
CCC1CCCCN1CCCNC(=O)C1CCCN(c2nn3c(=O)cc(C)nc3s2)C1 (configuration not stated)	0.2	u	0.9	-25.3	27.9	-17.1
CCCCNC(=O)c1cccc(C(=O)NCCCC)c1	0.0	13.4	1.9	0.4	13.6	8.8
NS(=O)(=O)c1ccc(Cl)c(C(=O)Nc2ccccc2[N+](=O)[O-])c1	0.1	-2.2	-2.6	13.0	9.5	7.1
CCCN(CCC)CCCNS(=O)(=O)c1cc(Br)cc2c1N(C(C)=O)CC2	-0.1	-6.8	0.0	1.7	-0.4	-32.7
CCOC(=O)N(C)c1c(CC)nc2c(OCc3ccccc3OC)cccn12	-1.3	x	2.7	-5.5	x	0.1
Fc1ccccc1-c1cc2ccccc2cn1	-0.3	3.5	12.4	12.3	-6.8	-0.3
COc1ccc(S(=O)(=O)Oc2ccc(C(=S)N3CCOCC3)cc2OC)cc1	0.7	24.7	-9.9	-1.9	-4.6	-2.2
Cc1cccc(NC(=O)C2CCCN(S(=O)(=O)c3cccc4cccnc34)C2)c1 (configuration not stated)	2.5	-4.7	-5.4	-17.5	x	-0.8
CCc1nc2ccc(C(=O)NCCOc3ccc(OC)cc3)cn2c1N(CC)Cc1cccc(Br)c1	-0.9	x	-4.8	-4.6	x	-11.8
Cc1sc2ncnc(N3CCC(C)CC3)c2c1C	2.5	50.4	5.6	6.5	-19.7	1.0
O=C(CN(c1ccc2c(c1)OCCO2)S(=O)(=O)c1ccccc1)NCc1ccco1	-1.1	-2.3	-13.2	-11.7	2.0	-0.4
CCC(C)(C)NC(=O)c1sccc1Oc1ccc(F)cc1[N+](=O)[O-]	2.9	2.5	-16.3	-7.9	-18.0	-9.5
Cc1sc2nc(CSC(C)C(=O)Nc3ccc(C#N)cc3)[nH]c(=O)c2c1C (configuration not stated)	0.9	-1.3	-0.5	0.6	-14.9	-13.0
CC(OC(=O)c1cccs1)C(=O)NCCc1ccccc1 (configuration not stated)	-0.1	7.5	8.8	3.3	5.3	-0.9
C[C@@H]1CN([C@H](C)CO)C(=O)CCCn2nncc2CO[C@H]1CN(C)C(=O)c1ccc(N2CCN(C)CC2)cc1	-0.3	-3.4	4.8	6.7	x	3.4
COc1ccc(CCNC(=S)N2CCN(S(=O)(=O)c3cccc(F)c3)CC2)cc1	-0.2	-2.2	2.9	-1.6	-7.4	-2.6
O=C(NCCn1ccc2ccccc21)c1cccc([N+](=O)[O-])c1	-0.7	-9.4	-8.2	1.7	-17.5	-9.7
C/C(=N\NC(=O)Cc1cccn1C)c1ccco1	1.0	8.0	-1.0	u	21.6	-6.7
COc1ccc(CN2CCC(C(=O)NC(c3ccc4c(c3)OCO4)c3ccccn3)CC2)cc1 (configuration not stated)	-0.3	23.9	-6.7	-6.3	x	-24.9
CSc1ccc(-c2c(C#N)c(N)nc3c2CCCC3)cc1	0.2	-9.6	-0.7	2.5	4.3	-10.6
